HSV replic up – enhancers of HSV replication in host cells, fold increase, host cell viability. HSV replication augmentation in cells. maximum fold increase. actives 0.005% (n = 220,000). AID 1956, 2009;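 active = peak rise of 1.5-fold or more in the series; tested in PC3 cells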;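 note: first round at 10 µM; read as green reporter fluorescence; hits show the peak of a series up to 25 µM; 1 = signal of infected wells without compound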
PKD1 kinase inh – inhibitors of human PKD1 kinase, biochemical, fluorescence polarization | inhibition, %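 (about 10 µM by stock and volumes)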 | actives 0.056% (n = 200,000) | AID 797, 2007 | PKD1 kinase fluorescence polarization assay;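 active = inhibition of 50% or more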;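 note: controls were vehicle for no effect and a reference inhibitor for full effect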
RGS16-Gao HTS – modulators of RGS16 binding to Galphao, primary screen, biochemical, human proteins, multiplexed bead flow cytometry | actives 0.38% (n = 220,000) | Regulator of G-protein signaling 16 (Homo sapiens) + Guanine nucleotide-binding protein … | binding response (% of control), % at 10 µM | bead-based flow cytometry RGS16-Galphao binding, fluorescence; actives lie on both sides | AID 1441, 2008;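 active = below 25% or above 175%, edge rows of some plates excepted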;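 note: Galphao activated by GDP with aluminum fluoride before binding; 100% = wells without compound and 0% = beads without RGS; some results beyond the cut were filed as inactive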
Target sequence (O15492 whole entry, looked up): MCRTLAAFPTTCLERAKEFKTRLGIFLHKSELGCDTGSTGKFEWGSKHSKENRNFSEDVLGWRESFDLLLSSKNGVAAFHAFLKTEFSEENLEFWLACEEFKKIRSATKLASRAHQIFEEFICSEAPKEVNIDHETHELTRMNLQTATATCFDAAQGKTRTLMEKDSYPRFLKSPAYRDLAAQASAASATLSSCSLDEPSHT
Target sequence (P09471 whole entry, looked up): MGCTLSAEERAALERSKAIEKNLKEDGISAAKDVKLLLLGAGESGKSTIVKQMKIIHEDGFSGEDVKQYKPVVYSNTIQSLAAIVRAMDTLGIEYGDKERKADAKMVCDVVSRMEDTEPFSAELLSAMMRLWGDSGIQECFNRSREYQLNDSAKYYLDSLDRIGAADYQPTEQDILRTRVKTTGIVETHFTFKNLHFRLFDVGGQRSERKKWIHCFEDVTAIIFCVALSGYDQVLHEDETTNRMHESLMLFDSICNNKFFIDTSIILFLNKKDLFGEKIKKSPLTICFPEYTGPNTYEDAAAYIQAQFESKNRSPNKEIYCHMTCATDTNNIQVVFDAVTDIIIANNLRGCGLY
INS promoter inh – inhibitors of insulin promoter-driven GFP, primary screen, imaging, TRM-6 cells (human fetal islet line), eGFP reporter, cell count | reporter expression induced with tamoxifen | inhibition, % at 2 µM | actives 0.9% (n = 130,000);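 active = inhibition above the mean plus 3 SD, with well images judged a real hit on visual review, cut at about 60% in these data, passing the limit was not always enough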
GALR2 agonist – GALR2 receptor agonists, primary screen, cell-based. Galanin receptor type 2 (Homo sapiens), O43603. GALR2-expressing cells, agonist activation read-out. activation, %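 (tested at 5 µM)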. actives 0.48% (n = 140,000);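 active = above mean plus 3 SD of all compounds, about 5% in these data, not always enough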;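 note: 0% = vehicle buffer wells and 100% = reference agonist at full effect; tested in CHO reporter cells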
Target sequence (O43603 whole entry, looked up): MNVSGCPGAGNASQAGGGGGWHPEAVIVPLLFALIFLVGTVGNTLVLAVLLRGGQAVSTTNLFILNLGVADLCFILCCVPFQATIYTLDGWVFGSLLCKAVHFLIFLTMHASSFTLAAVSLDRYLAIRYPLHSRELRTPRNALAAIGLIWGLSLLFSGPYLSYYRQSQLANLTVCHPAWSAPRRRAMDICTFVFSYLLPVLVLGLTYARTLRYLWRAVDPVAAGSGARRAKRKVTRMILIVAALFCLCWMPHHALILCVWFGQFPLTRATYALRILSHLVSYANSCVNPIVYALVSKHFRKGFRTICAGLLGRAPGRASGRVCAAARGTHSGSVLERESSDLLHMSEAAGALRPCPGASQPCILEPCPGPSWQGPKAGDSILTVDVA
INS promoter inh cell count – also measured in INS promoter inh; calls as there; normalized cell count, %; measured here: cell count, toxicity; reference of the scale not given here;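 cells exposed to compound for 48 h; stained nuclei by imaging scaled within each plate; lower means fewer cells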
HSV replic up primary fold – second read-out of HSV replic up, no call of its own (marks repeat the call); fold increase; compound at 10 µM; measured here: primary screen fold increase 10 uM; tested in PC3 cells;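 GFP signal in the first replicate; 1 = infected wells without compound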
The depositor's hits bear a star; i = inactive; · = no result given.

No. | Structure | HSV replic up | HSV replic up primary fold | PKD1 kinase inh | RGS16-Gao HTS | INS promoter inh | INS promoter inh cell count | GALR2 agonist
1 | Cc1ccc(NCC(O)Cn2cnc3c2c(=O)n(C)c(=O)n3C)cc1 (stereo not given) | i | 0.98 | · | 101 | · | · | ·
2 | COc1ccccc1CNC(=O)CC(NS(=O)(=O)c1ccc(C)cc1)c1ccco1 (stereo not given) | i | 0.93 | -13 | 100 | -25 | 166 | 0.2
3 | CC(C)(C)NC(=O)NC(=O)COc1ccccn1 | i | 0.98 | -9 | 101 | · | · | -0.8
4 | CC(=O)NC(=O)NC1CSCC1OC(C)=O (stereo not given) | i | 0.95 | -1 | 103 | -6 | 133 | -2.9
5 | Clc1ccc(OCCOCCOc2cccc3cccnc23)c(Br)c1 | i | 0.94 | 5 | 103 | -10 | 104 | -0.1
6 | CCn1c(SCC(=O)NNC(=O)Cc2ccccc2)nnc1-c1ccncc1 | i | 1.1 | -5 | 110 | · | · | ·
7 | Cc1cc(C(=O)N/N=C/c2cccc([N+](=O)[O-])c2O)n[nH]1 | i | 1 | -6 | 74 | · | · | -0.6
8 | COC(=O)[C@H]1[C@H](C(=O)OC)[C@@H](C(=O)OC)N(c2ccc(OC)cc2)[C@@H]1C(=O)OC | i | 0.87 | -4 | 107 | 50 | 140 | -0.1
9 | CC1CCN(c2c(NCC3CCC(C(=O)N4CCCC(C)C4)CC3)c(=O)c2=O)CC1 (stereo not given) | i | 0.85 | -7 | 119 | · | · | -0.9
10 | Cc1ccc(NC(=O)CNC(=O)OCc2ccccc2)cc1C | i | 1 | 0 | 102 | · | · | ·
11 | COc1cc(SC)ccc1C(=O)OCC(=O)NCC(C)C | i | 0.95 | 4 | 100 | · | · | ·
12 | CCOC(=O)c1cccc(NC(=O)C2CCCN(S(=O)(=O)c3cnc[nH]3)C2)c1 (stereo not given) | i | 1 | 1 | 127 | · | · | -0.6
13 | COCc1cc(N2CCCCC2)nc(-c2ccccc2)n1 | i | 1 | 4 | 108 | -45 | 114 | ·
14 | COc1ccc(NC(=O)C2CCCN2S(=O)(=O)c2ccc3c(c2)CCC(=O)N3)cc1 (stereo not given) | i | 0.97 | -2 | 80 | · | · | -1.1
15 | Cc1ccc(S(=O)(=O)C2(C(=O)NCc3ccc4c(c3)OCO4)CC2)cc1 | i | 0.88 | -7 | 118 | · | · | -1.0
16 | CCOC(=O)N/N=C/c1ccc(C)o1 | i | 0.98 | 2 | 101 | -33 | 90 | 0.5
17 | CC(O)c1c(-c2ccccc2)nn(C)c1Cl (stereo not given) | i | 1 | 7 | 104 | 32 | 156 | ·
18 | COC(=O)CCC(=O)N1CCc2cc(S(=O)(=O)N3CCc4ccccc43)ccc21 | i | 0.92 | -9 | 70 | · | · | -0.1
19 | CCOc1ccc(CC(=O)C2C(=O)CC(C)(C)CC2=O)cc1OCC | i | 0.85 | -9 | 104 | 3 | 114 | -2.0
20 | COc1ccc(OC)c(NC(=O)c2nc(-c3ccccc3)oc2C)c1 | i | 0.92 | -2 | 103 | -67 | 85 | ·
21 | c1ccc(Nc2nc(-c3ccncc3)cs2)nc1 | i | 0.97 | -2 | 104 | 43 | 111 | -1.8
22 | CS(=O)(=O)N(CC(=O)Nc1ccccc1C(=O)N1CCCC1)c1ccc2c(c1)OCO2 | i | 0.9 | 5 | 104 | -38 | 106 | ·
23 | CCOC(=O)N1CCN(C(=O)c2cc3c(s2)-c2ccccc2OC3)CC1 | i | 0.95 | -6 | 86 | · | · | 1.0
24 | COc1cc(OC)cc(C(=O)Nc2cccc(NC(C)=O)c2)c1 | i | 1.1 | 3 | 115 | · | · | 0.0
25 | O=C1C(C=NCCCN2CCCC2=O)=C(O)c2ccccc21 | i | 0.87 | 1 | 99 | -18 | 138 | 0.1

4 compounds already listed, arranged by their value in PKD1 kinase inh, largest number first.
cpd	SMILES	PKD1 kinase inh
13	COCc1cc(N2CCCCC2)nc(-c2ccccc2)n1	4
12	CCOC(=O)c1cccc(NC(=O)C2CCCN(S(=O)(=O)c3cnc[nH]3)C2)c1 (stereo not given)	1
4	CC(=O)NC(=O)NC1CSCC1OC(C)=O (stereo not given)	-1
6	CCn1c(SCC(=O)NNC(=O)Cc2ccccc2)nnc1-c1ccncc1	-5

Remaining list, next part:
No. | Structure | HSV replic up | HSV replic up primary fold | PKD1 kinase inh | RGS16-Gao HTS | INS promoter inh | INS promoter inh cell count | GALR2 agonist
26 | COc1ccc(CSc2ncnc3sccc23)cc1F | i | 1.1 | -8 | 105 | · | · | ·
27 | CC(C)(C)n1nnnc1C(c1cccc(C#N)c1)N1CCC(Cc2ccccc2)CC1 (stereo not given) | i | 0.92 | 3 | 104 | -119 | 109 | -1.7
28 | Cc1ccc(N2CC(C(=O)Nc3nnc(SCC(=O)Nc4nc(C)cs4)s3)CC2=O)cc1 (stereo not given) | i | 0.98 | -4 | 103 | -56 | 91 | 0.1
29 | Cc1nc(-c2ccccn2)nc(SCC(=O)c2ccc(F)cc2)c1Cl | i | 0.88 | · | 102 | · | · | ·
30 | O=C(CNc1ccc(F)cc1)c1ccccc1 | i | 0.93 | 2 | 103 | -35 | 94 | ·
31 | O=C(NCc1ccco1)c1ccc2c(c1)N(Cc1ccccc1)C(=O)CS2 | i | 0.96 | 3 | 95 | -26 | 78 | 0.3
32 | CC(C)C(=O)Nc1cccc(C(=O)NCc2ccc(S(N)(=O)=O)cc2)c1 | i | 0.85 | 2 | 103 | 28 | 70 | -2.6
33 | O=C(O)CSc1nnc(-c2cccnc2)n1Cc1ccccc1 | i | 0.85 | -7 | 99 | -52 | 94 | -1.8
34 | COCc1nnc(NS(=O)(=O)c2c(C)cc(C)cc2C)s1 | i | 0.77 | -1 | 100 | -17 | 129 | 0.8
35 | CCOc1ccccc1NC(=O)CC(O)(C(F)(F)F)C(F)(F)F | i | 1.1 | 1 | 103 | 55 | 168 | 0.1
36 | COc1ccc(NC(C)=O)cc1NC(=O)c1ccc2ccccc2c1 | i | 0.96 | -3 | 96 | 50 | 161 | ·
37 | CC(CCc1ccccc1)NC(=O)c1ccc(Br)o1 (stereo not given) | i | 0.77 | -2 | 104 | 20 | 182 | -1.3
38 | Cc1cccc(N2CCN(C(=S)Nc3ccc4nc(N5CCN(C)CC5)cc(C)c4c3)CC2)c1C | i | 0.62 | -2 | 99 | 31 | 54 | ·
39 | CN(C)C(=O)CCCc1nc(-c2ccc(Cl)cc2)no1 | i | 0.97 | -5 | 102 | -61 | 87 | -2.0
40 | CCC(OC(=O)C1=Cc2ccccc2OC1)C(=O)NC1CCCC1 (stereo not given) | i | 1.2 | 0 | · | -39 | 88 | -0.5
41 | Cc1cc(NC(=O)Nc2ccc(C)c(C)c2)no1 | i | 0.89 | 1 | 97 | · | · | ·
42 | CCOC(=O)c1oc2ccccc2c1CN1CCOCC1 | i | 0.88 | -15 | 96 | · | · | -4.5
43 | CSCCC(NS(=O)(=O)c1ccc2c(c1)oc(=O)n2C)C(=O)NC1CCCc2ccccc21 (stereo not given) | · | · | -3 | 114 | · | · | -3.0
44 | CCN(CC)S(=O)(=O)c1ccc(NC(=S)NC(=O)C(C)C)cc1 | i | 1.1 | -10 | 113 | -15 | 121 | -0.3
45 | CN(C(=O)c1cnc2n(c1=O)CCS2)C1CCCCC1 | i | 0.69 | -20 | 101 | · | · | -1.5
46 | O=C(CCS(=O)(=O)c1ccc(Cl)cc1)N1CCN(c2ccccc2F)CC1 | i | 0.92 | -3 | 101 | · | · | -2.0
47 | CCN(Cc1ccccc1)S(=O)(=O)c1ccc(S(=O)(=O)N2CCN(C)CC2)cc1 | i | 1.1 | -12 | 109 | -65 | 112 | -1.2
48 | CCc1[nH]c(=O)[nH]c1C(C)S(=O)(=O)c1ccc(C)cc1 (stereo not given) | i | 1.1 | 2 | 97 | · | · | ·
49 | COc1ccc(CNC(=O)C2CCN(c3nccs3)CC2)cc1 | i | 0.99 | -3 | 101 | -29 | 113 | 0.3
50 | CCCN1Cc2cccc(C(=O)NC(C)c3cccs3)c2C1=O (stereo not given) | i | 1 | 0 | 104 | 67 | 143 | -1.0
51 | c1ccc(-c2ccc(C3=Nn4c(nnc4-c4cc(-c5ccccc5)n[nH]4)SC3)cc2)cc1 | i | 0.59 | -11 | 104 | 15 | 122 | -1.4
52 | CCCCNC(=O)c1ccccc1C(=O)NCCCC | i | 0.9 | -2 | 99 | 31 | 171 | -0.8
53 | COc1ccc(OC)c(CCNC(=O)CN2C(=O)CC(C)(C)S(=O)(=O)c3ccccc32)c1 | i | 0.89 | 2 | 99 | · | · | -2.0
54 | CON/C=C(\C=Nc1ccccc1)c1ncc(C(F)(F)F)cc1Cl | i | 0.76 | -7 | 96 | 17 | 131 | -3.8
55 | COCCCn1cnc2oc3nc4ccccc4nc3c2c1=O | i | 1.1 | -4 | 98 | 57 | 120 | -1.4
56 | CSc1nc(-c2ccccc2)c2cc(Cl)ccc2n1 | i | 1 | -1 | 104 | 50 | 71 | -0.8
57 | CCOC(=O)N1CCC(NCc2c(C(=O)N(C)Cc3ccccc3)nc3ccccn23)CC1 | i | 1 | -2 | 88 | · | · | ·
58 | CC(=O)c1c(C)[nH]c(C(=O)CSc2ccc(F)cc2)c1C | i | 1 | · | 100 | · | · | ·
59 | Cc1cc2nc(C)n(CCCN)c2cc1C | i | 0.73 | -1 | 102 | 3 | 111 | 0.1
60 | CCCCNC1=CC(=O)C(=O)c2ccccc21 | i | 0.97 | -6 | 102 | -50 | 111 | ·
61 | COc1ccc(S(=O)(=O)N2CCC(C(=O)N3CCCC3)CC2)cc1Cl | i | 0.96 | 1 | 96 | 62 | 123 | -0.9
62 | Cc1ccc2c(Cl)c(C(=O)NCCc3ccccc3)sc2c1 | i | 0.99 | -8 | 49 | -3 | 104 | -1.1
63 | CC(C)Sc1nc2[nH]ncc2c(=O)[nH]1 | i | 1 | 7 | 104 | · | · | ·
64 | CCOc1ccc(C(C)NC(=O)c2ccccc2F)cc1 (stereo not given) | i | 0.99 | -7 | 100 | 23 | 89 | -1.5
65 | COc1ccccc1/C=N/NC(=O)C(NC(=O)c1ccccc1)=C(C)C | i | 0.92 | -1 | 100 | -19 | 126 | -1.6
66 | CSCCC(NC(=O)c1ccc(=O)n(C)n1)c1nc2ccccc2[nH]1 (stereo not given) | i | 0.9 | -9 | 97 | · | · | -1.2
67 | Cc1ccc(CC2CC(=O)N(c3cc(Cl)ccn3)C2=O)cc1 (stereo not given) | i | 1.1 | · | 111 | · | · | ·
68 | CCOC(=O)c1[nH]c(C)c(C(=O)OCC(=O)Nc2sc3c(c2C#N)CCCCC3)c1C | i | 0.83 | -1 | 97 | 18 | 126 | ·
69 | O=C1NC2(CCCCC2)C(=O)N1Cc1cccc(C(F)(F)F)c1 | i | 1 | -2 | 96 | 25 | 81 | ·
70 | CC(C)OCCCNC(=O)c1ccc(CS(=O)(=O)Cc2ccccc2F)o1 | i | 0.84 | -1 | 106 | -67 | 48 | -2.0
71 | CC(C)c1ccc(C(=O)NN2C(=O)C3CCCCC3C2=O)cc1 (stereo not given) | i | 0.99 | 11 | 101 | 23 | 107 | -1.9
72 | CC1=C(C)CC(C(=O)c2ccccc2)C(C(=O)O)C1 (stereo not given) | i | 1.2 | -11 | 89 | -36 | 120 | -1.3
73 | COc1ccccc1NC(=O)C(C/C=C(/C)Cl)C(C)=O (stereo not given) | i | 0.97 | 8 | 88 | -275 | 78 | 0.0
74 | Cc1ccc(C)c(SCC(=O)OCC(=O)NCc2ccccc2)c1 | i | 1 | -9 | 100 | · | · | ·
75 | Cc1cccc(N2C(=O)CC(N3CCC(c4nc5ccccc5[nH]4)CC3)C2=O)c1 (stereo not given) | i | 0.82 | 9 | 107 | -3 | 53 | 0.0
76 | O=C(c1ccc(Br)o1)N1CCN(C/C=C/c2ccccc2)CC1 | i | 1 | -2 | 102 | 39 | 60 | -1.7
77 | Nc1nnc(SCc2ccccc2F)s1 | i | 0.89 | · | 98 | · | · | ·
78 | CN1CCc2c(sc(/N=C/c3cc(C(C)(C)C)ccc3O)c2C#N)C1 | i | 1.2 | · | 100 | · | · | ·

Among those listed so far, 2 contain a COOH group:
No. | Structure | HSV replic up | HSV replic up primary fold | PKD1 kinase inh | RGS16-Gao HTS | INS promoter inh | INS promoter inh cell count | GALR2 agonist
33 | O=C(O)CSc1nnc(-c2cccnc2)n1Cc1ccccc1 | i | 0.85 | -7 | 99 | -52 | 94 | -1.8
72 | CC1=C(C)CC(C(=O)c2ccccc2)C(C(=O)O)C1 (stereo not given) | i | 1.2 | -11 | 89 | -36 | 120 | -1.3
